Screens (PubChem BioAssay)
Vaccinia mCherry = inhibitors of vaccinia virus infection (mCherry reporter signal). Potency, µM (series often up to 36.5 µM), without a hit: top-dose activity change, negative = inhibition, actives largely listed as inhibitors. hit rate 0.63% among 310,000. Vaccinia virus mCherry reporter infection, fluorescence; about a quarter of the inactives have no number. AID 720579; active = well fitted inhibition curve with a large enough effect; inconclusive = small, poorly fitted or top-dose-only effect; inactive = no such curve, though single readings can be large or run the other way; tested in A549 cells; note: nearly all actives have a fitted effect of over 35% in size; inactives centre near -10
VACV Venus inh = inhibitors of vaccinia virus (Venus reporter); Vaccinia virus Venus reporter expression, fluorescence; Potency, µM (series often up to 36.5 µM), inactives show at the highest dose activity change, negative = inhibition, actives largely listed as inhibitors; hit rate 0.46% among 330,000; active means well fitted inhibition curve with a large enough effect; inconclusive means small, poorly fitted or top-dose-only effect; inactive means no such curve, though single readings can be large or run the other way; tested in A549 cells; note: nearly all actives have a fitted effect of over 30% in size; inactives centre near -10
* hit, by the source's call; i = inactive; ? = inconclusive; . = not tested or not shown; [ ] = another dose, or the depositor's remark. % is set by controls: 0 for no effect and ±100 for the full control effect; potency is the fitted concentration of half-maximal effect.

SMILES	Vaccinia mCherry	VACV Venus inh
NC(=O)C1CCN(c2oc(/C=C/c3ccccc3)nc2S(=O)(=O)c2ccccc2)CC1	-6%	-19%
COc1cc2c(cc1NC(=O)C(C)Oc1ccccc1)oc1ccccc12 (stereo not given)	-15%	-12%
CCCn1c(=O)c2ccccc2n2c(=S)[nH]nc12	-4%	-4%
CC(CNC(=O)c1ccc(NC2=NC3CS(=O)(=O)CC3S2)cc1)c1ccccc1 (stereo not given)	i	-6%
C[C@@H]1CN([C@@H](C)CO)C(=O)c2cccc(NS(C)(=O)=O)c2O[C@H]1CN(C)CC1CCCCC1	-19%	-7%
COc1ccc(-c2nc(C)c(CCNS(=O)(=O)c3cc(Cl)ccc3Cl)s2)cc1	-7%	4%
Cc1ccc(NS(=O)(=O)c2ccc(OCC(=O)Nc3cccc([N+](=O)[O-])c3)c(C)c2)cc1	?	?
Cc1cccc2nc(-c3ccc(N(C)C)cc3)c(Nc3ccc4c(c3)OCO4)n12	-18%	-21%
CCOc1ccc(S(=O)(=O)N2CCCC(C(=O)NCc3ccccn3)C2)cc1 (stereo not given)	-9%	-17%
COc1ccc(Cl)cc1S(=O)(=O)N1CCC(C(=O)NC2CCCC2)CC1	-14%	-6%
Cc1nc2nc[nH]c2cc1Br	.	-4%
CCc1nc2c(OCc3ccccc3)cccn2c1N(C)C(=O)C(C)C	-4%	-30%
COc1ccc(CSc2ncn[nH]2)cc1[N+](=O)[O-]	-8%	-4%
Clc1ccc(Oc2nc(N3CCOCC3)nc(N3CCOCC3)n2)cc1	.	-11%
COc1ccccc1Cc1c(-c2ccco2)nc2ccc(C)cn12	-6%	-13%
Cc1ccc(S(=O)(=O)/N=C(/c2ccccc2)N(C)C)c(C)c1	-4%	-14%
O=C(COc1ccc2ccccc2c1)NNC(=O)C(=O)Nc1ccccc1	0%	-19%
COC(=O)[C@H](CC(C)C)NS(=O)(=O)c1ccc(F)cc1Br	i	-3%
COc1ccccc1N1CCN(c2ccc(Cl)nn2)CC1	-4%	-7%
CN(C)C(=O)c1c(NC(=O)c2ccco2)sc2c1CCCCC2	.	-4%
Cc1ccc(C(=O)NCCCNC(=O)COc2ccc(Cl)c(C)c2)cn1	i	-10%
Oc1ccc2[nH]cnc2c1CN1CCCCC1	.	-11%
Cc1cc(NS(=O)(=O)c2ccc(NC(=O)c3cnc4scc(C)n4c3=O)cc2)nc(C)n1	i	-2%
NC(=S)Nc1ccc2c(c1)OCO2	-5%	4%
COc1ccccc1S(=O)(=O)c1c(C)cc(C)[nH]c1=O	-13%	-8%
Cn1c(=O)c2cc(NC(=O)Nc3cccnc3)ccc2n1-c1ccc(C(C)(C)C)cc1	-10%	?
Cc1ccn2cc(-c3nonc3C)cc2c1	i	5%
Cc1cccc(N2CCN(C(=O)c3cn(CC(C)C)c(=O)c4c3c3ccccc3n4C)CC2)c1C	?	?
O=C(CSc1nn(-c2ccccc2)c(=S)s1)NC1CCS(=O)(=O)C1 (stereo not given)	i	-15%
COCCn1ccc2c(OCC(=O)Nc3cccc(OC)c3)cccc2c1=O	-8%	-5%

Structural class, the compounds so far with bromine (two)
SMILES	Vaccinia mCherry	VACV Venus inh
Cc1nc2nc[nH]c2cc1Br	.	-4%
COC(=O)[C@H](CC(C)C)NS(=O)(=O)c1ccc(F)cc1Br	i	-3%

Next entries
SMILES	Vaccinia mCherry	VACV Venus inh
CN1CCN(/N=C/c2c3ccccc3c(Cl)c3ccccc23)CC1	-26%	-20%
CCN(C(=O)COC(=O)c1c(-c2ccccc2)noc1C)C1CCS(=O)(=O)C1 (stereo not given)	i	-9%
COc1ccc(-c2nc3ccccc3s2)cc1NC(=O)COc1cccc(C)c1	-10%[7.34 µM]	-13%[7.34 µM]
CC(Sc1nc2ccccc2s1)C(=O)Nc1nnc(C(C)C)s1 (stereo not given)	-7%	5%
CC(C)(C)OC(=O)C[C@H]1C/C=C\C[C@@H](CC(=O)N(CCO)Cc2ccccc2)C(=O)N[C@@H](Cc2ccccc2)COC1=O	i	-20%
O=C1C(=Cc2cn(-c3ccccc3)nc2-c2ccc(OCc3ccc(Cl)cc3)cc2)SC(=S)N1CCS(=O)(=O)O	-13%	-12%
O=C1NC(Cc2ccc(O)cc2)c2nc3ccc(Cl)cc3c(=O)n2-c2cc3ccccc3cc21 (stereo not given)	-31%	?
CCN(C(=O)c1cnc(NC(C)C)cc1C(F)(F)F)c1ccc(Cl)cc1Cl	-12%[7.34 µM]	0%[7.34 µM]
CC1=C(C(=O)NC2CCC(C)CC2)C2(CCC(C)CC2)OC1=O (stereo not given)	-14%	-14%
Cc1cc(NC(=O)CCc2ccc(-c3ccccc3)o2)no1	i	-6%
O=C(Cc1nnc(NC(=O)c2ccccc2)s1)N/N=C/c1ccco1	-7%	1%
O=C(NCCCN1CCCC1)c1cccc(N2CCCC2=O)c1	-14%	-3%
CCCCN(C(=O)CSc1nnc(Nc2ccc(C)c(C)c2)s1)c1c(N)n(Cc2ccccc2)c(=O)[nH]c1=O	?	?
CCC/C(O)=C1\C(=O)CC(c2ccccc2)CC1=NC (stereo not given)	-2%	-15%
CCc1noc(C)c1C(=O)N1CCN(c2cccc(C)c2C)CC1	i	-13%
O=C(NC(=S)Nc1ccccc1[N+](=O)[O-])c1ccco1	-1%	-11%
Cc1cc(C)c2c(N)c(C(=O)c3ccccc3)oc2n1	-21%	-8%
N#Cc1ccccc1NC(=O)Cn1cnc2onc(-c3cccc(F)c3)c2c1=O	-13%	-7%
Cc1ccc(OCC(=O)NNC(=O)CSc2ncc(C#N)c(N)n2)cc1	-12%	-7%
O=C(COc1cccnc1[N+](=O)[O-])Nc1ccc(S(=O)(=O)N2CCOCC2)cc1	-7%	-6%
CC(=O)N1c2ccc(Cl)cc2C2C=CCC2C1c1cccc2ccccc12 (stereo not given)	?	?
CN(C)c1cccc(-c2cc(Nc3ccc(C(C)(C)C)cc3)ncn2)c1	24%	3%
CCCCn1c(SCC(=O)Nc2nnc(CC)s2)nc2c1c(=O)n(C)c(=O)n2C	-12%	-9%
CSc1sc(C)cc1C1C(C#N)=C(N)N(c2cccnc2)C2=C1C(=O)CC(C)(C)C2 (stereo not given)	.	-2%
Cn1c(/N=C(\N)c2ccccc2)nc2ccccc21	i	-28%
Cc1cccc(OP(=O)(NCc2ccccc2)Oc2cccc(C)c2)c1	?	?
Cc1ccc(C(=O)NCCN2CCOCC2)cc1Cl	-21%	-1%
Cc1c(NC(=O)C(C)n2cc([N+](=O)[O-])cn2)c(=O)n(-c2ccccc2)n1C (stereo not given)	-9%	-5%
O=C(Nc1ccc(S(=O)(=O)N2CCOCC2)cc1)c1ccc([N+](=O)[O-])o1	?	18µM*
COc1ccc(C)cc1NC(=O)CN1CCN(S(=O)(=O)c2ccc(Cl)cc2)CC1	.	-9%

Full records as entered above:
Record of O=C(NC(=S)Nc1ccccc1[N+](=O)[O-])c1ccco1 : Vaccinia mCherry: -1%; VACV Venus inh: -11%
Record of Cc1cc(C)c2c(N)c(C(=O)c3ccccc3)oc2n1 : Vaccinia mCherry: -21%; VACV Venus inh: -8%
Record of Cc1cccc(OP(=O)(NCc2ccccc2)Oc2cccc(C)c2)c1 : Vaccinia mCherry: ?; VACV Venus inh: ?

Other structures follow:
SMILES	Vaccinia mCherry	VACV Venus inh
CCN(CC)CCn1c2c(c(SCC(=O)Nc3ccccc3Cl)nc1=O)CCC2	-12%	-22%
C=CCNc1nnc(-c2ccncc2)s1	.	8%
CCc1ccc(OCC(=O)NC(NC(=S)Nc2ccccc2C)C(Cl)(Cl)Cl)cc1 (stereo not given)	?	?
CCOC(=O)C(=Cc1ccc2c(c1)OCO2)c1ccccc1	-18%	-1%
O=C(O)c1ccc2c(c1)C(=O)N(CCCCCCCN1C(=O)c3ccc(C(=O)O)cc3C1=O)C2=O	-1%	-10%
CCN1CCN(c2ccc(N3CCN(C(=O)c4ccc(Br)o4)CC3)nn2)CC1	-3%	-14%
Cc1ccc(NC(=O)Cn2c(=O)n(CC3CCCO3)c(=O)c3ccccc32)cc1 (stereo not given)	-8%	-5%
COc1ccccc1-n1c(CNC(=O)c2cccs2)n[nH]c1=S	3%	6%
CCCc1cc(=O)[nH]c(SCC(=O)CSc2nc(CCC)cc(=O)[nH]2)n1	-24%[1.46 µM]	-17%
Cc1cc(C)c2c(n1)nn1c(C)c(CCC(=O)Nc3cccc(C)c3C)c(C)nc21	3%	0%
CC(=O)Nc1ccc(SCC(=O)N(CCC#N)c2cc(C)cc(C)c2)cc1	i	-15%
COc1ccc(/C=N/NC(N)=S)cc1OC(=O)c1cccc2ccccc12	?	?
Nc1ncnc2c1ncn2[C@@H]1O[C@H](CNCc2ccccc2OCC(=O)N2CCCCC2)[C@@H](O)[C@H]1O	i	-1%
Cc1nn(C)c(C)c1NC(=O)CCSc1nc(-c2ccco2)cc(C(F)(F)F)n1	.	-22%
CS(=O)(=O)N(CC(=O)NCCSC1CCCCC1)c1cccc(F)c1	-10%	-5%
COc1ccc(CNc2nc(NCc3ccc(OC)cc3)c3ncn(C4CCCC4)c3n2)cc1	-23%	-25%
COc1ccc(OC)c(NC(=S)N(CCc2c(C)[nH]c3ccc(C)cc23)Cc2cccs2)c1	?	-22%
O=C(c1cccc(S(=O)(=O)N2CCN(c3ccccc3)CC2)c1)N1CCCC(C(F)(F)F)C1 (stereo not given)	-28%	-19%
COC(=O)C1CCN(C(=O)COc2ccc(S(=O)(=O)N3CCOCC3)cc2Cl)CC1	-17%	2%
COc1cccc(OCc2nc3ccccc3n2CCOc2ccccc2C)c1	-18%	-23%
CCOC(=O)c1cnc2c(ccc3ccccc32)c1Nc1ccccc1O	-13%	-7%
C=CCNC(=S)NNC(=O)c1ccc(=O)n(Cc2ccc(Cl)cc2Cl)c1	-10%	-4%
CCCCNCCOCCOc1ccccc1-c1ccccc1	-7%	-16%
Cc1ccc(CCNC(=O)CN2C(=O)COc3ccc(S(=O)(=O)N4CCCC4)cc32)cc1	i	-16%
O=C(Nc1ccccc1)Nc1nc(-c2ccc(Cl)cc2)cs1	i	0%
O=C(CSc1nnc(-c2ccccc2)o1)N1CCCc2ccccc21	-9%	-7%
COc1ccc(NC(=O)COc2ccc3c(C)cc(=O)oc3c2)cc1S(=O)(=O)N1CCCCC1	?	-11%
CC(NC(=O)c1ccccc1F)c1nnc(SCC(=O)N2CCN(c3ccccc3)CC2)n1C (stereo not given)	-10%	-7%
COC(=O)C[C@H]1C=C[C@@H](NC(=O)NC2CCCCC2)[C@@H](CO)O1	-7%	-7%
CC(C)NC(=O)Nc1cccc2c1O[C@H](CN(C)C(=O)Nc1ccccc1)[C@@H](C)CN([C@H](C)CO)C2=O	-12%	-24%

Not a retest: entries from further up.
SMILES	Vaccinia mCherry	VACV Venus inh
COc1ccc(NC(=O)COc2ccc3c(C)cc(=O)oc3c2)cc1S(=O)(=O)N1CCCCC1	?	-11%
CC(NC(=O)c1ccccc1F)c1nnc(SCC(=O)N2CCN(c3ccccc3)CC2)n1C (stereo not given)	-10%	-7%
COC(=O)C[C@H]1C=C[C@@H](NC(=O)NC2CCCCC2)[C@@H](CO)O1	-7%	-7%

Continuation.
SMILES	Vaccinia mCherry	VACV Venus inh
Cc1csc2nc(COc3ccc(NC(=O)COc4ccccc4F)cc3)cc(=O)n12	-23%	-28%
COc1ccccc1N1CCN(CC(=O)Nc2cc(F)ccc2C)CC1	?	-22%
O=C(c1cc2ccc3cccnc3c2[nH]1)N1CCN(c2ccccc2)CC1	-18%	-3%
CC1(C)SCC(C(=O)O)NC1=O (stereo not given)	i	-4%
CC(=O)Nc1ccc(NC(=O)/C=C/c2ccc(Cl)cc2)cc1	-11%	15%
Cc1ccccc1Nc1c(-c2ccc(Br)o2)nc2ccc(Cl)cn12	-15%	-12%
Cc1ccc(NC(=O)CSCC(=O)Nc2ccccc2N2CCCC2)cc1	?	-10%
C/C(=N\NC(=O)c1[nH]c2c([N+](=O)[O-])cc(C)cc2c1-c1ccccc1)c1cccnc1	.	?
Cc1ccc(C(=O)NNC(=O)c2cccnc2SCc2cccc([N+](=O)[O-])c2)cc1	-7%	-24%
CCc1ccc2c(c1)/C(=N/N(C)C(=S)NC)C(=O)N2	i	-6%
CC(NS(=O)(=O)c1ccc(OCC(=O)NCc2ccncc2)cc1)c1ccccc1 (stereo not given)	3%	-6%
Cc1c(C(=O)N2CCN(Cc3ccccc3)CC2)sc2ncnc(N3CCOCC3)c12	-20%	-25%
O=C(O)/C=C\C(=O)NCc1cccnc1	-10%	-10%
Cc1cccc(N=Cc2[nH]c3ccc(Br)c(Cl)c3c2O)c1	-2%	1%
COc1ccc(-c2cc(C(=O)NNC3=NCCC3)c3c(C)nn(-c4ccccc4)c3n2)cc1	i	-10%
Cn1c(=O)n(C)c2cc([N+](=O)[O-])c(N3CCN(S(=O)(=O)c4ccccc4)CC3)cc21	-21%	-25%
O=C(CCn1c(=O)oc2ccccc21)NCc1ccc2c(c1)OCO2	-19%	-7%
CCN(CC)S(=O)(=O)c1ccc(N2CCOCC2)c(NS(=O)(=O)c2ccc(C)cc2)c1	-15%	-17%
COc1cc(C(=O)N[C@H](C(=O)NC2CCCCCC2)C(C)C)cc(OC)c1OC	-14%	-10%
Cc1c2cnn(CC(=O)Nc3cccc(C(F)(F)F)c3)c(=O)c2c(C)n1Cc1ccccc1F	-6%	-5%
COc1ccc(OCC(=O)Nc2cc(-c3nn(C)c(=O)c4ccccc34)ccc2N2CCOCC2)cc1	2%	3%
COc1cccc(-c2ccc3nnc(SCC(=O)Nc4ccc(NC(C)=O)cc4)n3n2)c1	-15%	-9%
